Screens as filed in PubChem BioAssay.
RecA splice inh: inhibitors of M. tuberculosis RecA intein splicing; P9WHJ3; cell-free RecA intein splicing, fluorescence; inhibition, %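 (about 9 µM by stock and volumes)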; 0.75% of 290,000 active; AID 2221; in the data active = inhibition above about 30%; inconclusive = no clear call, values can overlap the other calls;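 also: 0% = vehicle wells and 100% = reference inhibitor control wells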
Target sequence (P9WHJ3 whole entry, looked up, canonical isoform): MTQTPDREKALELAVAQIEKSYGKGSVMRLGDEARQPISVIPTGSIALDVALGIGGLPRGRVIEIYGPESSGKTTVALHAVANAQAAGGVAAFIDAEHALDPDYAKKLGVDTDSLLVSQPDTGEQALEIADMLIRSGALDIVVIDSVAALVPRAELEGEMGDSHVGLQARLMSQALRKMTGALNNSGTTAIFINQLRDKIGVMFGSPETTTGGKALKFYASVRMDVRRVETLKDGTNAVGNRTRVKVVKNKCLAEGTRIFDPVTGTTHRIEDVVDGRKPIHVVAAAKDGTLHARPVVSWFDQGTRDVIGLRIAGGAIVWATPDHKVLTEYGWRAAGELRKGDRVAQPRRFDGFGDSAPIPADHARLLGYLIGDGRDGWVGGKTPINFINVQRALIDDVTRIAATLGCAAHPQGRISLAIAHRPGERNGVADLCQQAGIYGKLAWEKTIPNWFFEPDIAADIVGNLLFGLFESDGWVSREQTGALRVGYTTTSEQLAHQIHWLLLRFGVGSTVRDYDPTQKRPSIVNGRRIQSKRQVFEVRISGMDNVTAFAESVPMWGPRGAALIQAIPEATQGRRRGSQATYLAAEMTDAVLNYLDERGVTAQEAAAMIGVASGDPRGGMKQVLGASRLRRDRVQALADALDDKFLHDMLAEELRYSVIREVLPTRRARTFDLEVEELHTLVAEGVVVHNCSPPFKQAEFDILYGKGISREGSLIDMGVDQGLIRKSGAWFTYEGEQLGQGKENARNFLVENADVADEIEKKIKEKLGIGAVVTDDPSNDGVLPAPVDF
Mtb growth: M. tuberculosis H37Rv growth inhibitors, H37Rv strain (AID 1626) | M. tuberculosis H37Rv growth inhibition; higher % means a stronger effect | one-dose inhibition, % at 10 µM; IC50 in µM for titrated hits | 0.95% of 220,000 active;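 active = confirmed in a dose series; inconclusive = inhibition above 80% but not taken into the dose series; inactive = below 80% or under 30% at every dose of the series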;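 also: bacteria incubated seven days before Alamar blue readout; 0% = bacteria only wells and 100% = bacteria with antibiotic wells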
Mtb bLac sens: beta-lactam sensitization of Mtb H37Rv; 0.27% of 330,000 active; M. tuberculosis H37Rv growth with meropenem, percent inhibition; hits of this screen are not shown here; inhibition, % at 25 µM;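 active = about 74% or more and at least 40 points above the plate without the antibiotic, then above 30% in a dose series; inconclusive = first-round hits that could not be retested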;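 also: growth measured after seven days incubation then overnight dye step; 0% = bacteria only wells and 100% = bacteria with antibiotic; twin plates without the antibiotic show which effects depend on it; some results filed as inactive read as strong as hits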
Arbovirus anti: arbovirus infection inhibition | inhibition, % at 10 µM | 0.37% of 200,000 active | arbovirus infection cell-based antiviral screen | AID 1251;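 active = inhibition from about 30%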;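 also: bluetongue infection of BSR cells; cell survival read as ATP light after 72 h; 0% = infected wells without compound and 100% = uninfected wells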
YopH inh: blocks Yersinia enterocolitica YopH tyrosine phosphatase | fluorescence Ex485/Em525 | inhibition, %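 (about 10 µM by stock and volumes)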 | 0.16% of 140,000 active | AID 898;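 active = inhibition of 50% or more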;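 also: controls were vehicle for no effect and minimum signal wells for full effect; inactives centre near -20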
Arbovirus anti repeat: also measured in Arbovirus anti; calls as there; inhibition, %; measured here: 10K subset replicate screen; many hits read low in the repeat;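 first of two repeat runs on a subset; 0% = infected and 100% = uninfected wells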
* marks the source's active call; other numbers are inactive results; ? = inconclusive; . = no result given.

SMILES | RecA splice inh | Mtb growth | Mtb bLac sens | Arbovirus anti | YopH inh | others
O=c1[nH]c2ccccc2n1CCCN1CCN(C(c2ccccc2)c2ccccc2)CC1 | 13 | 17µM* | . | -25 | -31
Fc1ccccc1CCNCc1ccccc1 | 1.4 | -1% | 8 | 0 | -36
COc1ccc(C(=O)NCCNc2nc3ccc(C)cc3cc2C#N)cc1OC | -31 | . | -9 | . | .
CS(=O)(=O)N1CCN(c2ccccc2NC(=O)C(c2ccccc2)c2ccccc2)CC1 | . | -7% | -5 | -1 | -36
CCc1cc(N2CCOCC2)cc2c1[nH]c1ccccc12 | -6.0 | 2% | ? | -3 | -39
O=C(CSc1nnc(-c2cccnc2)n1-c1ccccc1)NCc1ccc2c(c1)OCO2 | -1.3 | 6% | 0 | 2 | -29
O=C(NC(=S)Nc1ccc(Br)cc1)C1CCC1 | 4.2 | . | 38 | . | .
CCCCCc1nnc(NC(=O)Cn2cnc3ccccc3c2=O)s1 | -2.4 | 0% | -4 | 3 | -25
O=C(c1ccc(Cl)cc1)N1CCCC(C(=O)N2CCc3ccccc3C2)C1 (stereo not given) | 1.8 | -7% | -1 | . | .
Cc1onc(-c2c(Cl)cccc2Cl)c1C(=O)c1ccc(F)cc1 | 0.7 | -4% | -1 | . | .
CC(C)CCNC(=O)C(=O)NCC1OCCCN1S(=O)(=O)c1cccs1 (stereo not given) | 1.3 | . | -11 | . | .
CCOC(=O)c1[nH]cnc1C(=O)NC(C)C | -2.1 | -10% | 1 | 4 | 12
COc1ccc(C)cc1NC(=O)c1cc(S(=O)(=O)N2CCC3(CC2)OCCO3)ccc1F | 3.6 | . | -4 | . | .
Clc1ccc(-c2nnc(-c3ccccc3)c(N3CCSCC3)n2)cc1 | 17 | 3% | 5 | 12 | -35
COc1ccccc1N1CCN(Cc2ccccc2F)CC1 | -1.1 | -2% | 12 | -1 | -31
CSc1ccccc1C(=O)N1CCc2ccccc2C1 | 1.1 | 10% | 5 | -6 | .
C/C(=N\S(=O)(=O)c1ccc(C)cc1)Nc1cc(C(C)C)c(O)cc1C | 27 | 3% | 3 | 0 | -18
COc1ccc(CN(C)C(c2ccccc2)c2nnnn2-c2ccccc2C)c(OC)c1C (stereo not given) | 15 | 2% | 0 | -6 | -28
CC(C)N(C(=O)Cn1c(=O)oc2ccccc21)c1ccccc1 | 1.3 | . | -7 | . | .
COc1ccccc1NC(=O)c1sc2ncn(CC(=O)Nc3ccccc3)c(=O)c2c1C | 4.4 | . | 1 | . | .
Cc1ccc(C2=NOC(C)(c3sc(-c4ccc(Cl)cc4)nc3C)C2)cc1 (stereo not given) | 4.2 | -8% | 59 | . | .
COc1ccc(C(=O)/C=C/C(=O)N(CC(=O)NC2CCCCC2)CC2CCCO2)c(O)c1 (stereo not given) | 5.8 | -5% | -1 | -5 | .
COc1cccc2cc(C(=O)N3CCN(C(=O)c4ccco4)CC3)c(=O)oc12 | -0.5 | -6% | -4 | 6 | -15
Cc1ccc(SCc2noc(C(=O)NC(C)C)c2C(=O)O)cc1C | -1.7 | -9% | -2 | 10 | -75
CCOC(=O)c1c(NC(=O)CSc2nnc(-c3cccnc3)o2)sc(C(C)=O)c1C | 0.0 | -4% | -6 | -10 | 0
Cc1cc(NC(=O)CN2CCN(c3ccccc3O)CC2)no1 | -4.6 | -10% | ? | -2 | -6
CCOc1c2ccc(C(=O)NCc3ccc(OC(F)(F)F)cc3)cc2nn1C | -5.1 | -6% | -6 | -4 | -20
Cc1ccc(NC(=O)c2sc3nc[nH]c(=O)c3c2C)c(C)c1 | -8.0 | 5% | -8 | 12 | -26
O=c1[nH]c2c(n(C3CCCCC3)c1=O)CCC2 | 2.4 | 1% | -5 | 1 | -30
Cc1cccc(NC(=O)C(=O)NCCCc2ccccc2)c1 | 5.2 | 4% | 8 | -5 | -23
COc1ccc2nc(Nc3nc4cc5c(cc4s3)OCCO5)sc2c1 | -7.2 | 14% | 81 | 15 | -11
CSC1=NCCN1C(=O)c1ccc(S(=O)(=O)N2CCCCC2)cc1 | 4.5 | -17% | -6 | -7 | -27
CC(=O)Nc1ccc2c(COC(=O)[C@H](C)N3C(=O)C4CCCCC4C3=O)cc(=O)oc2c1 (stereo not given in full) | -1.3 | -12% | -1 | . | .
COc1ccc(OC)c(-c2csc(N(Cc3ccco3)C(=O)c3ccco3)n2)c1 | 0.3 | 20% | -3 | -10 | .
CC(C)(C)SCCNS(=O)(=O)c1ccc2ccccc2c1 | 0.6 | 7% | -5 | -2 | -16
CC(C)n1c(-c2cccs2)nc2ccccc21 | -2.0 | 0% | 9 | -11 | -27
COC(=O)c1[nH]c2cc(OC)ccc2c1NC(=O)CCN1CCCCC1 | -2.8 | 4% | -10 | 0 | -23
COC(=O)c1sc2ncn(N)c(=O)c2c1C | 2.0 | 13% | -11 | . | .
CCCc1n[nH]c2c1C(=O)C(C(=O)OC)C(C)(C)C2 (stereo not given) | 2.8 | 4% | -2 | 3 | -31 | Arbovirus anti repeat=6
O=C(NCCc1c[nH]c2ccccc12)C(=O)NCC1OCCN1S(=O)(=O)c1ccc(F)cc1 (stereo not given) | 0.5 | 5% | -3 | -10 | -10
Cc1ccc(-c2cc(-c3ccccc3)nc(NN)n2)cc1 | -2.4 | . | 4 | . | .
N#Cc1nccnc1S(=O)(=O)c1cccs1 | 68* | -3% | 100 | . | .
COc1cccc(-c2cc(C(=O)Nc3cc(C)on3)no2)c1 | 12 | 10% | 12 | -4 | 2
COC(=O)c1ccc(-n2c(C)cc(C(=O)COC(=O)CNS(=O)(=O)c3ccc(C)cc3)c2C)cc1 | 3.8 | 7% | 5 | -1 | -24
COc1ccc(C(=O)Oc2coc(CSc3nnc(NC(=O)c4cccs4)s3)cc2=O)cc1 | -0.6 | 5% | 1 | -14 | -12
Cc1cccc(C)c1NC(=O)/C(C#N)=C/c1ccc(-c2ccc(C(=O)O)cc2)o1 | -9.5 | . | 1 | . | .
CCOC(=S)SCC(=O)N1CCc2cc(OC)ccc2C1C1C(=O)CCCC1=O (stereo not given) | 5.8 | -4% | -2 | 1 | -12
COc1ccc(C(=O)C2C(c3ccc(-c4ccccc4[N+](=O)[O-])o3)NC(=O)NC2(O)C(F)(F)F)cc1 (stereo not given) | 64* | -9% | 4 | 18 | 26
COc1ccccc1NC(=O)CSc1nnc(-c2ccco2)n1N | 0.2 | . | 12 | . | .
N#CC1=C(S)N(c2ccccc2)C(c2ccc(-c3ccc(Cl)c(Cl)c3)o2)NC1=O (stereo not given) | 20 | 41µM* | 90 | . | .
CNC(=S)NNc1nncc2ccccc12 | -2.3 | -3% | -5 | -1 | .
CCCCC(=O)Nc1nc2c(OC)ccc(OC)c2s1 | -3.5 | 2% | 6 | -5 | . | Arbovirus anti repeat=-8
CS(=O)(=O)NN1C(=O)c2ccccc2NC12CCCC2 | -15 | -7% | -1 | 1 | .
O=C(CCCN1C(=O)/C(=C\c2cccs2)SC1=S)Nc1cc([N+](=O)[O-])ccc1O | 2.0 | . | -6 | . | .
O=C(CC1C(=O)NCCN1C(=O)Nc1ccccc1)Nc1cccc(Cl)c1 (stereo not given) | -1.2 | 7% | 4 | 4 | .
CC(C)(C)CN1CCNC(=O)C1CC(=O)NCCc1cnn(-c2ccccc2)c1 (stereo not given) | 2.8 | -5% | 1 | -1 | .
Cc1noc(C)c1COC(=O)CNC(=O)c1cccc(F)c1 | 0.3 | -8% | 2 | 1 | .
Cc1ccc(C(C(=O)NCc2ccccc2)N(C(=O)c2csnn2)c2cccc3ccccc23)o1 (stereo not given) | 14 | 2% | -2 | -3 | 11
O=C(NC(=S)Nn1cnc2c(cnn2-c2ccccc2)c1=O)c1ccc(Cl)cc1 | 0.2 | 11% | -5 | -2 | -13
CC(C)c1ccccc1-n1c(-c2cccnc2)n[nH]c1=S | 0.6 | 0% | 3 | -1 | .

The listing continues.
SMILES | RecA splice inh | Mtb growth | Mtb bLac sens | Arbovirus anti | YopH inh | others
COCCSc1nnc(NC(=O)c2ccc([N+](=O)[O-])cc2)s1 | -5.9 | -5% | 3 | 7 | .
O=C(COc1ccc2ccc(=O)oc2c1)Nc1ccc(CCO)cc1 | 1.2 | . | 3 | . | .
CCc1ccc(NC(=O)CCC(=O)Nc2nnc(C(F)(F)F)s2)cc1 | -2.7 | . | 1 | . | .
C=CCn1c(SCC(=O)Nc2cc(C)on2)nc2sc(CC)cc2c1=O | 2.9 | 3% | 12 | 9 | 1
CN(CC(=O)Nc1ccccc1C(F)(F)F)C(=O)Cc1ccc(S(=O)(=O)N2CCOCC2)s1 | -2.9 | . | -7 | . | .
O=C(NCc1ccncc1)C1CCN(S(=O)(=O)Cc2ccccc2)CC1 | -0.2 | -5% | -5 | -3 | -38
COc1ccc(CCC(=O)Nc2ccc(S(=O)(=O)Nc3nccc(C)n3)cc2)cc1 | 0.7 | . | -7 | . | .
O=C(C[n+]1cccc2ccccc21)c1ccc(Br)cc1 | -1.7 | . | 1 | . | .
C=C(Cl)COc1cc(C)cc2oc(=O)cc(CC)c12 | -1.9 | -1% | 1 | -13 | -22
Cc1ccc(CSc2nc3ccccc3c(=O)[nH]2)cc1 | -1.5 | -5% | -8 | 4 | .
Cc1cc(NC(=O)CCCN2C(=O)c3cccnc3C2=O)no1 | -1.6 | . | 0 | -2 | -35
N/C(=N\OC(=O)COc1ccccc1Cl)c1ccc(Cl)cc1 | 7.8 | 7% | 9 | -14 | -43
CC(Sc1nnc(COc2ccc(Cl)cc2)n1Cc1ccccc1)C(=O)O (stereo not given) | -1.0 | -2% | -17 | -5 | .
O=C1COc2ccc(S(=O)(=O)N3CCN(c4ccccc4)CC3)cc2N1 | -0.5 | . | -4 | . | .
COc1cccc(OC)c1OCCCCN1CCCCC1 | -2.8 | . | -7 | . | .
O=C(NC(=S)NC1CCSC1=O)c1ccccc1 (stereo not given) | -1.0 | -1% | -4 | -5 | -30
CCCNC(=O)c1c(CSc2ccc(Cl)cc2)noc1C(=O)NCc1ccccc1 | 3.4 | 5% | 1 | . | .
COC(CNC(=O)c1ccc2c(c1)ncn2-c1cccc(C)c1)OC | 0.2 | . | 5 | . | .
COc1cccc(/C=C/c2nc(C#N)c(NCC(C)C)o2)c1 | -17 | . | 97 | . | .
Cc1ccc2cccc(SCC(=O)NCC#N)c2n1 | -3.7 | 4% | -6 | -3 | -32

Among those listed so far, 6 contain a cyano group:
SMILES | RecA splice inh | Mtb growth | Mtb bLac sens | Arbovirus anti | YopH inh | others
COc1ccc(C(=O)NCCNc2nc3ccc(C)cc3cc2C#N)cc1OC | -31 | . | -9 | . | .
N#Cc1nccnc1S(=O)(=O)c1cccs1 | 68* | -3% | 100 | . | .
Cc1cccc(C)c1NC(=O)/C(C#N)=C/c1ccc(-c2ccc(C(=O)O)cc2)o1 | -9.5 | . | 1 | . | .
N#CC1=C(S)N(c2ccccc2)C(c2ccc(-c3ccc(Cl)c(Cl)c3)o2)NC1=O (stereo not given) | 20 | 41µM* | 90 | . | .
COc1cccc(/C=C/c2nc(C#N)c(NCC(C)C)o2)c1 | -17 | . | 97 | . | .
Cc1ccc2cccc(SCC(=O)NCC#N)c2n1 | -3.7 | 4% | -6 | -3 | -32

New compounds follow:
SMILES | RecA splice inh | Mtb growth | Mtb bLac sens | Arbovirus anti | YopH inh | others
CCc1ccc(NC(=O)C(=O)N/N=C(\C)CC(=O)Nc2ccccn2)cc1 | 36* | ? | 79 | -9 | -24
C#CCOCCOCCOCCNc1nc(N2CCN(C(=O)CCCCCCCCCCNC(=O)[C@H](CCCCN)n3cc(CCCC(=O)O)nn3)CC2)nc(N2CCN(C(=O)CCCCCCCCCCNC(=O)[C@H](CCCCN)n3cc(CCCC(=O)O)nn3)CC2)n1 | 0.3 | . | -6 | . | .
CCCCn1c(N)c(N(Cc2ccccc2OC)C(=O)COc2cc(C)ccc2Cl)c(=O)[nH]c1=O | -0.9 | . | -1 | . | .
Cc1ccc2c(CC(=O)Nc3c(C)n(C)n(-c4ccccc4)c3=O)coc2c1 | -1.2 | -5% | -5 | -7 | -22
CCOC(=O)c1nnn(-c2nonc2N)c1CNc1ccc(C)c(Br)c1 | -2.5 | . | 41 | 2 | 8
O=C(CSc1ccccn1)N/N=C/C=C/c1ccccc1 | -0.5 | 10% | 10 | -5 | -26
Cc1cc(C)cc(NC(=O)CCn2c(=O)c3cccn3c3ccccc32)c1 | -0.8 | . | -2 | . | .
COc1ccc(/C=N\NC(=O)c2ccccc2[N+](=O)[O-])cc1COc1c(F)c(F)c(F)c(F)c1F | -0.8 | . | 1 | . | .

These rows are one share of the data; rates above refer to the full screens.
